# Screens deposited in PubChem by National Center for Advancing Translational Sciences (NCATS).
# 2A StopGo: lowers the luciferase signal of an FMDV 2A StopGo reporter; human cells with a luciferase reporter of 2A StopGo recoding; control for the full effect not named in the record; Potency, µM (series often up to 57.9 µM), for the others: top-dose signal change, negative = less light; hit rate 1.2% among 410,000; AID 1159524; active = well fitted falling curve with a large enough effect; inconclusive = small, poorly fitted or top-dose-only effect; inactive = no such curve, though single readings can be large or run the other way; tested in HEK293T cells; note: nearly all actives have a fitted effect of over 45% in size; luciferase light after 4 h
# Active calls of the source: *; ? = inconclusive; [ ] = dose if it differs, or a comment. % is set by controls: 0 for no effect and ±100 for the full control effect; potency is the fitted concentration of half-maximal effect. An excerpt; rates above refer to the full screens.
# The opening 2 records, to show the layout:
COc1cc(-c2cnc3ccccc3c2)cc2c1OCCN(C(=O)CCn1nc(C)cc1C)C2
  2A StopGo: -9.5%

CCn1c(-c2ccccc2F)nc2cc(C(=O)N3CCCC(CO)C3)cc(NC(C)=O)c21 (stereo not given)
  2A StopGo: 5.1%

# The whole of this part (from the top)
COc1cc(-c2cnc3ccccc3c2)cc2c1OCCN(C(=O)CCn1nc(C)cc1C)C2
  2A StopGo: -9.5%

CCn1c(-c2ccccc2F)nc2cc(C(=O)N3CCCC(CO)C3)cc(NC(C)=O)c21 (stereo not given)
  2A StopGo: 5.1%

Cc1cc(C(=O)Nc2ccccc2-c2nc(CNC(=O)c3cscn3)c(C)o2)c(C)o1
  2A StopGo: 32.3%

OC(c1cccnc1)c1ccc2c(c1)CN(Cc1cn(-c3ccccc3)nc1-c1ccccc1)CCO2 (stereo not given)
  2A StopGo: -18.1%

Cc1cccc(C(=O)NCc2nc(-c3cccc(NC(=O)c4ccoc4C)c3)oc2C)n1
  2A StopGo: -18.8%

OC1(c2ccc3c(c2)CN(Cc2ccccn2)CCO3)CCN(c2ccccc2F)CC1
  2A StopGo: -7.6%

Cc1cc(C)n(-c2cccc(C(=O)NCC3Cc4cccc(-c5cccnc5)c4O3)c2)n1 (stereo not given)
  2A StopGo: ?

COC(=O)c1cn([C@H]2C[C@@H](C(=O)N3CCCCCC3)N(Cc3ccsc3)C2)nn1
  2A StopGo: 5.4%

COC(=O)C1CCN(Cc2ccc3c(c2)CN(C(=O)C(C)N2CCOCC2)CCO3)CC1 (stereo not given)
  2A StopGo: -6.1%

COc1ccccc1-c1ccc(C(=O)N2CCC(N3CCc4ccccc4C3)CC2)c(N(C)CC2COCCO2)n1 (stereo not given)
  2A StopGo: 1.5%

Cc1cnc(SCc2ccccn2)nc1C1CCCN(C(=O)c2ccc3c(c2)OCCO3)C1 (stereo not given)
  2A StopGo: -2.7%

CCn1c2ccccc2c2cc(CN3CCOc4ccc(C(O)c5cccnc5)cc4C3)ccc21 (stereo not given)
  2A StopGo: -20.1%

COc1cc(-c2ccc(C(F)(F)F)cn2)cc2c1OCCN(S(=O)(=O)C[C@]13CC[C@H](CC1=O)C3(C)C)C2
  2A StopGo: 6.2%

COc1ccccc1-c1ccnc(-n2ncc(C(=O)N3CCN(C4CCCC4)CC3)c2-c2ccco2)n1
  2A StopGo: 0.0%

COc1ccc(CCN(C)Cc2cc(-c3cncnc3)ccc2O)cc1OC
  2A StopGo: -11.5%

# A draw from above in order of molar mass, low to high:
COC(=O)c1cn([C@H]2C[C@@H](C(=O)N3CCCCCC3)N(Cc3ccsc3)C2)nn1
  2A StopGo: 5.4%

OC1(c2ccc3c(c2)CN(Cc2ccccn2)CCO3)CCN(c2ccccc2F)CC1
  2A StopGo: -7.6%

COc1cc(-c2cnc3ccccc3c2)cc2c1OCCN(C(=O)CCn1nc(C)cc1C)C2
  2A StopGo: -9.5%

COc1ccccc1-c1ccc(C(=O)N2CCC(N3CCc4ccccc4C3)CC2)c(N(C)CC2COCCO2)n1 (stereo not given)
  2A StopGo: 1.5%

# Next section:
COc1cc(CNCc2cc3cc(C)ccc3nc2-c2ccc(F)cc2)cc(OC)c1OC
  2A StopGo: 8.3%

O=C(NCC1(N2CCOCC2)CCCC1)c1cnn(-c2ncc3c(n2)-c2ccccc2CC3)c1C1CC1
  2A StopGo: 0.2%

COc1cccc(-c2cc3c(c(OC)c2)OCCN(S(=O)(=O)c2ccccc2OC(F)(F)F)C3)n1
  2A StopGo: 7.5%

Cc1ccc(C(=O)NCCc2nnc3n2CCN(Cc2ccnc4ccccc24)CC3)c(C)c1
  2A StopGo: -7.3%

Cc1cccc(C(=O)NCc2nc(-c3cccc(NC(=O)C4CCCN(C)C4)c3)oc2C)n1 (stereo not given)
  2A StopGo: -5.6%

Cc1nc2sccn2c1CN1Cc2ccccc2OC(c2ccccc2F)C1 (stereo not given)
  2A StopGo: -20.2%

CO[C@H]1[C@H](NC(=O)c2ccsc2)c2ccccc2C12CCN(Cc1cccn1-c1ccccn1)CC2
  2A StopGo: -15.5%

COc1cc(CN2CCC3(CC2)c2ccccc2[C@@H](NC(=O)c2ccccc2OC)[C@@H]3O)ccc1F
  2A StopGo: ?

COC(=O)C1CCCCN1Cc1ccc2c(c1)CN(C(=O)c1cc(C)nc3cc(F)ccc13)CCO2 (stereo not given)
  2A StopGo: -23.0%

Cc1cc2c(c(-c3cnccn3)c1)OC(CNC(=O)c1cc(C(C)C)[nH]n1)C2 (stereo not given)
  2A StopGo: -10.5%

Cc1cc(-c2cc(F)cc3c2OC(CNC(=O)CCn2cncn2)C3)ccc1F (stereo not given)
  2A StopGo: -7.4%

COCC(=O)Nc1cc(C(=O)N2CCc3c(Cl)cccc3C2)c2c(c1)nc(-c1ccncc1)n2C
  2A StopGo: -2.9%

CC(=O)O[C@H]1C[C@H](O[C@H]2[C@@H](O)C[C@H](O[C@H]3[C@@H](O)C[C@H](O[C@H]4CC[C@@]5(C)[C@H](CC[C@@H]6[C@@H]5C[C@@H](O)[C@]5(C)[C@@H](C7=CC(=O)OC7)CC[C@]65O)C4)O[C@@H]3C)O[C@@H]2C)O[C@H](C)[C@H]1O[C@@H]1O[C@H](CO)[C@@H](O)[C@H](O)[C@H]1O
  2A StopGo: ?

CC(=O)[C@H]1CC[C@H]2C3CC=C4C[C@@H](O)CC[C@]4(C)C3CC[C@]12C (stereo not given in full)
  2A StopGo: -17.0%

O=c1ccn([C@@H]2O[C@H](COP(=O)(O)OP(=O)(O)OP(=O)(O)O)[C@@H](O)[C@H]2O)c(=O)[nH]1
  2A StopGo: -14.0%

COc1ccccc1C1CN(Cc2c(C)nn(C)c2Cl)Cc2ccccc2O1 (stereo not given)
  2A StopGo: -8.9%

Cc1cccc(CN2C(=O)[C@H]3Cc4c([nH]c5ccccc45)C(C)(C)N3C2=O)c1
  2A StopGo: 35.5µM*

COc1ccccc1N1CCN(c2nc(CNC(=O)c3ccc4c(c3)OCO4)nc3ccccc23)CC1
  2A StopGo: ?

O=C(c1ccoc1)N1CCOc2ccc(CN3CCC(Oc4cccnc4)CC3)cc2C1
  2A StopGo: 1.1%

CC(C)=CCC[C@@](C)(O)[C@H]1CC=C(C)CC1
  2A StopGo: -8.6%

CCOc1ccc(Cl)cc1Nc1nc(NCCO)nc(N2CCCC2)n1
  2A StopGo: -13.3%

Cc1cc(C(=O)N2CCOc3ccc(CN4CCC(Oc5cccnc5)CC4)cc3C2)c(C)o1
  2A StopGo: -23.3%

CCn1nc(C)c(CN2Cc3ccccc3OC(c3ccccc3OC)C2)c1C (stereo not given)
  2A StopGo: 0.3%

Cc1c(C(=O)N(C)CC2CCCN(C)C2)cnn1-c1nccc(-c2ccco2)n1 (stereo not given)
  2A StopGo: 19.0%

COc1cc(=O)n2c(c1C(=O)NC(C)c1ccco1)CCN(Cc1ccccc1C(F)(F)F)CC2 (stereo not given)
  2A StopGo: -9.5%

COc1cc(-c2cc(C)c3cccc(OC)c3n2)cc2c1OCCN(C(=O)Cn1nc(C)cc1C)C2
  2A StopGo: 15.5%

CCC1(C2CCN(C(=O)c3ccccc3C)CC2)NC(=O)N(CCc2scnc2C)C1=O (stereo not given)
  2A StopGo: 13.1%

Cc1ncoc1C(=O)NCc1nc(-c2cccc(NC(=O)c3ccccn3)c2)oc1C
  2A StopGo: 0.8%

O=c1ccn([C@@H]2O[C@H](COP(=O)(O)O)[C@@H](O)[C@H]2O)c(=O)[nH]1
  2A StopGo: -17.3%

CC1CN(CC(=O)NCCC2COc3ccccc3O2)Cc2cc(Cl)ccc2O1 (stereo not given)
  2A StopGo: -5.2%

C[C@H](N)C(=O)N[C@@H](C)C(=O)N[C@@H](Cc1ccccc1)C(=O)CCl
  2A StopGo: 2.9%[97.4 µM]

CO[C@H]1[C@H](NC(=O)c2ccncc2)c2ccccc2C12CCN(C(=O)c1ccoc1)CC2
  2A StopGo: -9.1%

Cc1ccc(C)c(CN2CCC3(CCC(CNC(=O)c4ccnn4C)O3)CC2)c1 (stereo not given)
  2A StopGo: 2.1%

CCOc1ccc(CN2CCOc3ccc(C(O)c4cccnc4)cc3C2)cc1 (stereo not given)
  2A StopGo: -29.1%

CCN1C(=O)CC(CC(=O)N2CCCCC2c2nccs2)(c2ccccc2C)C1=O (stereo not given)
  2A StopGo: -11.3%

COc1cc(CN2CCC3(CCC(CNC(=O)c4ccco4)O3)CC2)cc(OC)c1 (stereo not given)
  2A StopGo: -8.6%

COc1cc(-c2c(OC)cccc2OC)cc2c1OCCN(C(=O)CCC(=O)c1ccc(F)cc1)C2
  2A StopGo: -7.1%

CSc1nnc(CNC(=O)c2cccc3ccccc23)n1-c1ccccc1C
  2A StopGo: 0.5%

COc1cc(Cl)c(C)cc1N1C(=O)[C@@H]2C[C@H]1CN2Cc1ccccn1
  2A StopGo: -10.6%

COc1cc(=O)n2c(c1C(=O)N(C)Cc1cscn1)CCN(C(=O)c1ccc(C)c(C)c1)CC2
  2A StopGo: 23.6%

Cc1nc2cc(NC(=O)[C@@H]3C[C@@H](Sc4ccccn4)CN3Cc3ccc4c(c3)OCCO4)ccc2s1
  2A StopGo: 4.5%

COCCNC(=O)COc1ccc(OCCNC[C@H](O)COc2ccccc2)cc1
  2A StopGo: -17.0%

CC(C)C[C@H](NC(=O)[C@H](Cc1ccccc1)NC(=O)CNC(=O)[C@@H](NC(=O)[C@@H](N)Cc1ccc(O)cc1)[C@H](C)O)C(=O)N[C@H](C(=O)O)[C@H](C)O
  2A StopGo: -27.2%[6.7 µM]

COc1ccc2cc(CNCc3nonc3C)c(N3CCCC(CO)C3)nc2c1 (stereo not given)
  2A StopGo: 13.5%

Cc1c(C(=O)N2CCOc3ccccc3C2)sc2ncnc(NCCCN3CCOCC3)c12
  2A StopGo: -9.8%

CSc1nc(C(=O)N2CCc3c(cnc(C)c3CNC(=O)c3ccc4c(c3)OCO4)C2)cs1
  2A StopGo: -0.4%

Cc1cccc2cc(CN(CC3CCCO3)C(=O)c3ccccc3F)c(N(C)C)nc12 (stereo not given)
  2A StopGo: 3.4%

Cc1c(C(=O)N2CCC(Cc3ccccc3)CC2)sc2ncnc(NCc3ccccn3)c12
  2A StopGo: -29.2%

O=C1c2ccccc2CCC1CNCCc1ccc(O)cc1 (stereo not given)
  2A StopGo: -6.8%

Cc1cccc(C(=O)N[C@H]2CC[C@@H](n3cc(C(=O)N4CCCC4)nn3)CC2)c1
  2A StopGo: -8.1%

C[C@@H]1CN(Cc2ccc3c(c2)CN(Cc2cccn2-c2ccc(Cl)cn2)CCO3)C[C@H](C)O1
  2A StopGo: 0.6%

COc1ccc(CN2CCc3nnc(CCc4ccccc4)n3CC2)c(OC)c1C
  2A StopGo: -9.6%

COc1ccc(-c2nc3cc(C)ccc3cc2CN(C(=O)c2cccs2)C2CC2)cc1OC
  2A StopGo: -5.2%

CC(=O)Nc1cc(C(=O)N2CCc3c(Cl)cccc3C2)cc2ncn(CCc3ccccn3)c12
  2A StopGo: -13.7%

COc1ccccc1C1CN(CC(=O)N2CCC(N3CCOCC3)CC2)Cc2ccccc2O1 (stereo not given)
  2A StopGo: 4.9%

CC(NC(=O)C1CCOCC1)c1nnc2n1CCN(Cc1ccc3ccccc3c1)CC2 (stereo not given)
  2A StopGo: -16.6%

COc1ccccc1C1CN(Cc2cccc3c2OCO3)Cc2ccccc2O1 (stereo not given)
  2A StopGo: 3.8%

N=C(N)c1ccc2cc(OC(=O)c3ccc(N=C(N)N)cc3)ccc2c1
  2A StopGo: -8.2%[97.4 µM]

COc1cc(=O)n2c(c1C(=O)NCc1ccsc1)CCN(Cc1nc3ccccc3[nH]1)CC2
  2A StopGo: -4.0%

CC(N)(C(=O)O)c1ccc(P(=O)(O)O)cc1 (stereo not given)
  2A StopGo: -17.6%

Cc1ccccc1CN1CCc2nnc(C(C)NC(=O)c3cc(F)ccc3F)n2CC1 (stereo not given)
  2A StopGo: -7.8%

CCc1nc2cc(C(=O)N3CCC[C@H]3C(=O)OC)cc(NC(=O)c3ccccc3OC)c2n1C
  2A StopGo: -1.1%

Cc1c(C(=O)NCC2Cc3cccc(-c4cncnc4)c3O2)c(-c2ccccc2)nn1-c1ccccc1 (stereo not given)
  2A StopGo: -5.6%

O=C(c1n[nH]c2c1CCCC2)N1CCC(n2c(C3CCCO3)nc3ccccc32)CC1 (stereo not given)
  2A StopGo: -3.2%

COCc1c(C(=O)N2CCN(c3ccccc3)CC2)cnn1-c1nccc(-c2ccco2)n1
  2A StopGo: 0.6%

Cc1ccc(CNc2nc(C)c(-c3ccn(CCN4CCOCC4)n3)s2)o1
  2A StopGo: -11.5%

COc1cccc(CN2CCCC(c3nc(-c4ccncc4)ncc3-c3ccccc3)C2)c1O (stereo not given)
  2A StopGo: -25.8%

Cc1oc(-c2cccc(NC(=O)c3ccccc3)c2)nc1CNC(=O)c1cnc2ccccn2c1=O
  2A StopGo: -11.7%

O=C(c1cccc(N2CCCC2=O)c1)N1CCC(Oc2cccc(CN3CCN(c4ccccn4)CC3)c2)CC1
  2A StopGo: ?

CCC1(C2CCN(Cc3cccc(Cl)c3)CC2)NC(=O)N(CC2COc3ccccc3O2)C1=O (stereo not given)
  2A StopGo: -10.5%

O=C(NCCN1Cc2ccccc2OC(c2ccsc2)C1)c1ccc2[nH]ccc2c1 (stereo not given)
  2A StopGo: 0.6%

CN(C(=O)OC(C)(C)C)c1ccc(-c2nc3ccccc3s2)cc1
  2A StopGo: 100µM*

O=C(NC(NC(=S)Nc1ccc(F)c([N+](=O)[O-])c1)C(Cl)(Cl)Cl)C(c1ccccc1)c1ccccc1 (stereo not given)
  2A StopGo: ?

O=C(NCc1ccccn1)c1cnn(-c2nccc(-c3ccccc3F)n2)c1C1CC1
  2A StopGo: 13.6%

Cc1cccc2cc(CN(C(=O)c3ccc(N4CCCCC4)cc3)C3CC3)c(N3CCC(O)CC3)nc12
  2A StopGo: -9.5%

C1CCC(NC(=NC2C3CC4CC(C3)CC2C4)N2CCOCC2)CC1 (stereo not given)
  2A StopGo: ?

CC=C1C2C=C(C)CC1(N)c1ccc(=O)[nH]c1C2 (stereo not given)
  2A StopGo: -7.0%

OC(c1ccc2c(c1)CN(Cc1cccc3nccnc13)CCO2)C1CCCCC1 (stereo not given)
  2A StopGo: -0.1%

N[C@H](CS)C(=O)O
  2A StopGo: -5.0%
